D2 agonist – Beta-Arrestin HTS for Positive Allosteric Modulators of the Human D2 Dopamine Receptor: Agonists. D(2) dopamine receptor (Homo sapiens), P14416. DiscoveRx PathHunter D2 beta-arrestin, luminescence, 90 min; 100% = 57 uM dopamine signal. activation, % (no concentration beside the values). hit rate 0.084% among 360,000. AID 624465, 2012; in the data active = activation above about 40%; inconclusive = about 15% to 40%; inactive = below about 15%; also: compound concentration not given in the record; the text of the record calls up to 30% inactive
Target sequence (P14416 whole entry, looked up): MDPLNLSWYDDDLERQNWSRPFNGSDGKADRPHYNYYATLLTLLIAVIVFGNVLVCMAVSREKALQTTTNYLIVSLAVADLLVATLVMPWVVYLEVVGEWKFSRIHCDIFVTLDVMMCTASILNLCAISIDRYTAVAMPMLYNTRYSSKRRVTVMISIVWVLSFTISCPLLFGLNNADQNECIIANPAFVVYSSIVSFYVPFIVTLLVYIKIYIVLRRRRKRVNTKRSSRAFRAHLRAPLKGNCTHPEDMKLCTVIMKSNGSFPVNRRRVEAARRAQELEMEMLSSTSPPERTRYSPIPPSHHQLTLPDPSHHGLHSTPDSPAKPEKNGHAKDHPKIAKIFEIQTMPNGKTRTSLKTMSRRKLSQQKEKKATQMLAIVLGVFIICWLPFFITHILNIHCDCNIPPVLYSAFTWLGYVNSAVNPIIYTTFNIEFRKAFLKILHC
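Agonist mode: compounds alone added to overnight-plated D2 PathHunter cells for 90 min at 37 C, with 57 uM final dopamine (EC100) defining full response. Beta-arrestin recruitment detected by chemiluminescent reagent, read after 1 h at ambient temperature.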
Menin MLL FP FL – qHTS Assay for Inhibitors Targeting the Menin-MLL Interaction in MLL Related Leukemias: Competition With Fluorescein Labeled MLL-derived Peptide | 290,000 tested, under 10 active | Fluorescence polarization, fluorescein-MLL peptide displacement from menin | FP activity change, % at 61.4 µM; inconclusive = falling polarisation curve, or a change in total fluorescence; inactive = total fluorescence flat and polarisation flat or rising; no compound was filed as active; the % refers to the polarisation; negative = inhibition;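 also: % of control where 0% means no effect; inhibitors lower the polarisation; unlabelled MLL peptide was the positive control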
Sfp inh – qHTS Assay for Inhibitors of Bacillus subtilis Sfp phosphopantetheinyl transferase (PPTase); 4'-phosphopantetheinyl transferase ffp (Bacillus subtilis), Q9F4F7; Biochemical Sfp PPTase activity, qHTS; Potency, µM, for inactives: max response, negative = inhibition, most hits filed as inhibitors; hit rate 3.5% among 310,000; AID 1490, 2009; active = well fitted inhibition curve with a large enough effect; inconclusive = small, poorly fitted or top-dose-only effect, or another doubt; inactive = no such curve, though single readings can be large or run the other way;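 also: the enzyme is Sfp with the accession as filed and its product quenches rhodamine fluorescence; potency is read from the fitted curve at half-maximal effect; 0% = enzyme reaction without inhibitor and -100% = no enzyme wells; top concentration of the series not given in the record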
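Fluorescence-quenching assay: 15 nM Sfp-PPTase preincubated 15 min at room temperature with compound, then 5 uM rhodamine-CoA and 12.5 uM BHQ-2-labelled YbbR peptide added. Fluorescence (ex 525/em 598 nm) read at start and after 30 min; difference gives rate.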
gsp antagonist – qHTS for Antagonists of gsp, the Etiologic Mutation Responsible for Fibrous Dysplasia/McCune-Albright Syndrome: qHTS. AID 624288, 2012. gsp-mutant cells, cAMP HTRF, 30 min; control for the full effect not named in the record. hit rate 0.4% among 340,000. Potency, µM (titrated, usually from 76.9 µM), inactives show top-dose activity change, negative = inhibition, most hits filed as inhibitors; active = falling curve of any shape with a large fitted effect; inconclusive = falling curve, mostly with a smaller effect; inactive = flat or rising curve; cell line not stated here;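 also: intracellular cAMP measured with PDE inhibitor Ro 20-1724 present during compound exposure; potency is read from the fitted curve at half-maximal effect; % is scaled to controls: 0 for no effect and ±100 for the full control effect; nearly all actives have a fitted effect of over 65% in size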
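Measurement of cellular cAMP by homogeneous time-resolved fluorescence following a 30 min compound exposure at 37C. The PDE inhibitor […] was present throughout; the assay buffer was DPBS with 0.05% BSA and 0.005% Tween 20.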
PINK1 modulator – A Quantitative High throughput Screen to Identify Chemical Modulators of PINK1 Expression | PINK1 immunofluorescence, high-content cytometry, 24 h | Potency, µM (series often up to 76.6 µM), for inactives: at the top dose activation (PINK1 increase), most hits filed as activators | hit rate 0.2% among 410,000 | AID 624263, 2012; active = well fitted activation curve with a large enough effect; inconclusive = small, poorly fitted or top-dose-only effect; inactive = flat fitted curve, though single readings scatter; cell line not stated here;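 also: potency is read from the fitted curve at half-maximal effect; % of control where 0% means no effect; nearly all actives have a fitted effect of over 65% in size; a mitochondrial uncoupler was the plate control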
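Fluorescence from anti-PINK1 antibody, together with nuclear and cell stains, was scanned on a laser-scanning cytometer. Before staining, stable-line cells were incubated 24 hours with compounds at 5 concentrations; primary antibody 12 h at 10 degrees C.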
ClpP mod – qHTS Assay for Activators of ClpP; ATP-dependent Clp protease proteolytic subunit (Bacillus subtilis (strain 168)), P80244; purified B. subtilis ClpP, FRET peptide cleavage, 20 min; Potency, µM (highest dose often 57.5 µM), for inactives: at the top dose activity change, negative = active; hit rate 1.9% among 340,000; AID 651965, 2013; active = well fitted falling curve with a large enough effect; inconclusive = small, poorly fitted or top-dose-only effect; inactive = no such curve, though single readings can be large or run the other way; also: potency is read from the fitted curve at half-maximal effect; the source files actives as falling curves though it sought activators and does not explain the sign; nearly all actives have a fitted effect of over 65% in size; many hits overshoot -100%
Target sequence (P80244 whole entry, looked up): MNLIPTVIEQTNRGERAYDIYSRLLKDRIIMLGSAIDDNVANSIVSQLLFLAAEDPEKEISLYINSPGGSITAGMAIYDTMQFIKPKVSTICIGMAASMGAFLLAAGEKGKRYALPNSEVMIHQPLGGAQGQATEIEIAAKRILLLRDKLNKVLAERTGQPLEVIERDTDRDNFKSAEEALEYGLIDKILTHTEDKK
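Buffer: 100 mM Tris/HCl pH8, 100 mM KCl, 0.05% low protease BSA, 2.5% glycerol, 0.01% Tween-20. ClpP 10 microg/mL final; 20 min RT; delta FRET normalized to ADEP and DMSO controls.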
gsp agonist – qHTS for Agonist of gsp, the Etiologic Mutation Responsible for Fibrous Dysplasia/McCune-Albright Syndrome: qHTS; gsp mutant cells, cAMP HTRF, 30 min; control for the full effect not named in the record; hit rate 0.13% among 340,000; AID 624287, 2012; Potency, µM (titrated, usually from 76.9 µM), for the others: at the highest dose activation (cAMP increase), hits mostly activators; active = well fitted activation curve with a large enough effect; inconclusive = small, poorly fitted or top-dose-only effect, or another doubt; inactive = no such curve, though single readings can be large or run the other way; cell line not stated here;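 also: phosphodiesterase inhibitor Ro 20-1724 added with compounds to block cAMP breakdown; potency is read from the fitted curve at half-maximal effect; nearly all actives have a fitted effect of over 60% in size; about a fifth of the inactives were tested at one dose only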
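Cells stably selected in G418 were plated at 2000/well, grown 16-24 hr, then given compounds in DMSO with the PDE inhibitor […] (300 uM solution added) for 30 min at 37C; cAMP was read by HTRF.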
An asterisk follows results filed as active; & = joins results of further samples; [ ] = remark or other dose.

C/C(=N\NC(=O)CC#N)c1cc2ccccc2oc1=O was read as D2 agonist 0.5, Menin MLL FP FL 27, Sfp inh inconclusive, gsp antagonist 5%, PINK1 modulator -3.0%, ClpP mod inconclusive and gsp agonist 4%.
Screening Cc1ccsc1C1CC(=O)Nc2ccccc2S1 (centres undefined) returned D2 agonist -1.9, Menin MLL FP FL -2.7, Sfp inh 6%, gsp antagonist 16%, PINK1 modulator 2.0% and gsp agonist 12%[15.4 µM].
For OCCCN1c2ccccc2Nc2nnc(-c3ccccc3)cc21 the results were D2 agonist -1.7, Menin MLL FP FL 4.4, Sfp inh 15%, gsp antagonist 1%, PINK1 modulator -0.1%, ClpP mod -20% and gsp agonist 0%.
O=C(C1CCC(CNS(=O)(=O)c2cccc3nsnc23)CC1)N1CC=C(c2ccccc2)CC1 (centres undefined) was read as D2 agonist 9.6, Menin MLL FP FL -1.4, Sfp inh -4%, gsp antagonist 35µM*, PINK1 modulator -0.1%, ClpP mod -3.0% and gsp agonist -14%.
For COc1ccc(OC)c(/C(C)=N/Nc2ccc(C(=O)O)cc2)c1 the results were D2 agonist -2.8, Menin MLL FP FL 1.9, Sfp inh -5%, gsp antagonist -7%, PINK1 modulator 2.3% and gsp agonist -19%.
Screening O=C(COc1cc(Cl)c(Cl)cc1Cl)Nc1ccncc1 returned D2 agonist -0.4, Menin MLL FP FL 6.5, Sfp inh 0%, gsp antagonist -5%, PINK1 modulator 6.1%, ClpP mod -5.3% and gsp agonist 23%.
Screening CCC(C)(C)n1nnnc1CN1CCC(c2nc3ccc(C)cc3[nH]2)CC1 returned D2 agonist -0.5, Menin MLL FP FL -0.4, Sfp inh 24%, gsp antagonist -11%, PINK1 modulator 3.0%[38.3 µM], ClpP mod -3.0% and gsp agonist 4%.
For COc1ccc(CN(C)C[C@H]2Oc3c(NC(=O)Nc4ccccc4)cccc3C(=O)N([C@H](C)CO)C[C@@H]2C)cc1 the results were D2 agonist 5.0, gsp antagonist -25%, PINK1 modulator 0.2% and ClpP mod 2.9%.
Screening Cc1cccc(C(=O)NNC(=O)CN2C(=O)c3ccccc3C2=O)c1 returned D2 agonist -1.3, Menin MLL FP FL 4.8, Sfp inh 12%, gsp antagonist 6%, PINK1 modulator 0.8% and gsp agonist 28%[15.4 µM].
Screening Cn1nc(C(=O)N2CCN(c3ccc(Cl)cc3)CC2)c2c1-c1ccccc1S(=O)(=O)C2 returned D2 agonist 4.1, Sfp inh -7%, gsp antagonist -11%, PINK1 modulator 1.0%&3.6%, ClpP mod -8.0%&0.7% and gsp agonist -58%[inhibitor].
CCOC(=O)Cc1cc(=O)[nH]c(Nc2nc3ccccc3o2)n1 was read as D2 agonist -0.5, Menin MLL FP FL -0.8, Sfp inh 4%, gsp antagonist -25%, PINK1 modulator 1.5%[38.3 µM], ClpP mod -9.6% and gsp agonist -14%.
For CCn1ncc(C2=NOC(C(=O)N3CCC(C(N)=O)CC3)C2)c1C (centres undefined) the results were D2 agonist -2.3, Menin MLL FP FL -3.2, Sfp inh 6%, gsp antagonist 7%, PINK1 modulator 4.6%[38.3 µM], ClpP mod -1.1% and gsp agonist inconclusive.
Screening CCOC(=O)c1c(C)n(CC(O)c2ccccc2)c2ccc(O)cc12 (centres undefined) returned D2 agonist -5.0, Menin MLL FP FL 0.6, Sfp inh inconclusive, gsp antagonist -15%, PINK1 modulator 1.1%, ClpP mod -4.4% and gsp agonist -43%[inhibitor].
COc1ccccc1CCN1C(=S)NC(C)(C)CC1(C)O (centres undefined) was read as D2 agonist -2.6, Menin MLL FP FL -2.1, Sfp inh 0%, gsp antagonist 3%, PINK1 modulator -0.4%, ClpP mod -1.3% and gsp agonist 15%.
`CC1(C)CC(=O)C2=C(C1)NC1=C(C(=O)c3ccccc31)C2c1ccc(O)cc1` (centres undefined) gave D2 agonist -6.8, Menin MLL FP FL -1.4, Sfp inh -18%, gsp antagonist 8%, PINK1 modulator 1.1%, ClpP mod -0.7% and gsp agonist -5%.
Cc1ccccc1N(CC(=O)NC1CCCCC1)C(=O)c1csnn1 was read as D2 agonist -1.9, Menin MLL FP FL -3.4, Sfp inh -3%, gsp antagonist 12%, PINK1 modulator -0.3% and gsp agonist 14%.
`CCn1nc(C(=O)N2CCc3ccccc3C2)c2ccccc2c1=O` gave D2 agonist -5.9, Menin MLL FP FL -0.8, Sfp inh 7%, gsp antagonist 1%, PINK1 modulator -0.9%, ClpP mod -2.1% and gsp agonist 1%.
For COc1cc(OC)c(C2Oc3nc(SC)nnc3-c3ccccc3N2C(C)=O)cc1OC (centres undefined) the results were D2 agonist -5.4, Menin MLL FP FL 3.5, Sfp inh 19%, gsp antagonist -15%, PINK1 modulator 0.8%, ClpP mod 1.5% and gsp agonist 15%.
`O=C1NC(C(=O)O)=CC(c2ccc([N+](=O)[O-])cc2)N1` (centres undefined) gave D2 agonist inconclusive, Menin MLL FP FL -1.6, Sfp inh 8.9µM*, gsp antagonist 8%, PINK1 modulator 0.5%, ClpP mod 0.7% and gsp agonist 26%.
Screening Cc1cc(Cl)ccc1OCC(=O)NNC(=O)c1cccnc1 returned D2 agonist -4.7, Sfp inh 5%, gsp antagonist 1%, PINK1 modulator 1.2%, ClpP mod -2.9% and gsp agonist 1%.
O=C(Nc1ccc(Cl)cc1)NC1CCCCC1Cc1ccco1 (centres undefined) was read as D2 agonist -4.9, Menin MLL FP FL -6.6, Sfp inh 26%, gsp antagonist -20%, PINK1 modulator inconclusive, ClpP mod 0.5% and gsp agonist 13%.
`NC(=O)C1(NC(=O)[C@@H]2CC3(CC(c4cccc(NC(=O)[C@@H]5CCC(=O)N5)c4)=NO3)CN2C(=O)Cc2ccc(Cl)cc2)CC1` (some centres undefined) gave D2 agonist -4.5, Menin MLL FP FL 5.8, Sfp inh 13%, gsp antagonist 7%, PINK1 modulator -0.6%, ClpP mod -5.1% and gsp agonist -27%.
`C/[N+]([O-])=C/c1c(OCc2ccccc2)ccc2ccccc12` gave D2 agonist -3.5, Menin MLL FP FL 7.3, Sfp inh 10%, gsp antagonist 2%, PINK1 modulator 0.9%, ClpP mod -2.5% and gsp agonist 17%.
Screening O=C(CN1CCN(c2ccccn2)CC1)NCc1cccs1 returned D2 agonist 6.8, Menin MLL FP FL 2.7, Sfp inh 7%, gsp antagonist -6%, PINK1 modulator -0.8%, ClpP mod 0.2% and gsp agonist -8%.
Screening COCCNc1nc(-c2ccc(Cl)cc2C)c2sccc2n1 returned D2 agonist 5.0, PINK1 modulator 1.1% and ClpP mod 4.8%.
`Cc1c(N)c(C(C)(C)C)cc(C(C)(C)C)c1[N+](=O)[O-]` gave D2 agonist -5.4, Menin MLL FP FL 0.3, Sfp inh 9%, gsp antagonist 1%, PINK1 modulator 6.0%, ClpP mod -7.6% and gsp agonist -45%.
Screening O=C(c1ccc2c(c1)OCO2)N1CCC2(CC1)Oc1ccc(F)cc1C(=O)C21CC(c2cccnc2)=NO1 (centres undefined) returned D2 agonist 0.3, Menin MLL FP FL 0.2, Sfp inh 4%, gsp antagonist 35µM*, PINK1 modulator 1.2% and ClpP mod -0.7%.
Screening COc1ccc(C2(CNC(=O)c3cccs3)CCOCC2)cc1 returned D2 agonist 2.4, Menin MLL FP FL 1.2, Sfp inh 21%, gsp antagonist 7%, PINK1 modulator 0.8%, ClpP mod 0.0% and gsp agonist 6%.
Screening O=C(NCC1CCCO1)c1cccc(NC(=O)c2ccc(Br)cc2)c1 (centres undefined) returned D2 agonist 3.1, Menin MLL FP FL 0.9, Sfp inh 15%, gsp antagonist -11%, PINK1 modulator 3.3%, ClpP mod 1.0% and gsp agonist -42%[inhibitor].
COC(=O)CCC(=O)Nc1cccc(C(=O)Nc2cccc(Cl)c2)c1 was read as D2 agonist -2.5, Menin MLL FP FL 5.7, Sfp inh 5%, gsp antagonist -17%, PINK1 modulator 0.5%, ClpP mod -0.8% and gsp agonist 24%.

The final 2 compounds of the section above come first, to join the parts:
Screening O=C(NCC1CCCO1)c1cccc(NC(=O)c2ccc(Br)cc2)c1 (centres undefined) returned D2 agonist 3.1, Menin MLL FP FL 0.9, Sfp inh 15%, gsp antagonist -11%, PINK1 modulator 3.3%, ClpP mod 1.0% and gsp agonist -42%[inhibitor].
COC(=O)CCC(=O)Nc1cccc(C(=O)Nc2cccc(Cl)c2)c1 was read as D2 agonist -2.5, Menin MLL FP FL 5.7, Sfp inh 5%, gsp antagonist -17%, PINK1 modulator 0.5%, ClpP mod -0.8% and gsp agonist 24%.
For O=[N+]([O-])c1cccc(NC(=S)NCCc2ccccc2)c1 the results were D2 agonist -6.5, Menin MLL FP FL -4.7, Sfp inh -11%, gsp antagonist inconclusive, PINK1 modulator inconclusive, ClpP mod 0.6% and gsp agonist -11%.
For O=C1CCC/C=C/C[C@@H](CC(=O)N(CCO)Cc2ccccc2)C(=O)NC[C@H](c2ccccc2)O1 the results were D2 agonist -6.9, gsp antagonist -2%, PINK1 modulator 1.4%, ClpP mod 0.0% and gsp agonist -1%.
CCCn1c(SCC(=O)Nc2ccc3c(c2)OCCO3)nnc1-c1ccco1 was read as D2 agonist -3.0, Menin MLL FP FL -1.1, Sfp inh 10%, gsp antagonist -10%, PINK1 modulator -0.9%, ClpP mod 1.0% and gsp agonist -4%.
Screening O=C1C2Sc3[nH]c(=O)sc3C(c3ccccc3)C2C(=O)N1c1ccc(Cl)cc1 (centres undefined) returned D2 agonist -2.0, Menin MLL FP FL 2.7, Sfp inh -10%, gsp antagonist -11%, PINK1 modulator 1.1%, ClpP mod -1.5% and gsp agonist 15%.

Bioassay records: PubChem BioAssay, National Center for Advancing Translational Sciences (NCATS)
